Screening results: PubChem BioAssay, National Center for Advancing Translational Sciences (NCATS)
StopGo reporter: FMDV 2A StopGo reporter, luciferase signal. human cells with a luciferase reporter of 2A StopGo recoding; control for the full effect not named in the record. Potency, µM (highest dose often 57.9 µM), without a hit: at the top dose signal change, negative = less light. actives 1.2% (n = 410,000); active = well fitted falling curve with a large enough effect; inconclusive = small, poorly fitted or top-dose-only effect; inactive = no such curve, though single readings can be large or run the other way; tested in HEK293T cells; also: nearly all actives have a fitted effect of over 45% in size; luciferase light after 4 h
RE007 growth inh: less growth of the S. pombe RE007 Vpr strain; actives 0.21% (n = 360,000); S. pombe RE007 Vpr strain, BacTiter-Glo ATP luminescence, 24 h; control for the full effect not named in the record; Potency, µM (titrated, usually from 92.2 µM), for the others: at the highest dose activity change, negative = less growth; AID 651644; active = well fitted falling curve with a large enough effect; inconclusive = small, poorly fitted or top-dose-only effect; inactive = no such curve, though single readings can be large or run the other way;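 also: nearly all actives have a fitted effect of over 50% in size; the assay follows cell death caused by Vpr and the record does not say whether a fall means rescue or toxicity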
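Fission yeast strain RE007, carrying one chromosomally integrated HIV-1 vpr copy, was seeded at OD 0.01 in PMG+AL medium with 23 nL pinned compound. After 24 h at 30 °C and 99% humidity, viability was read by BacTiter-Glo luminescence.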
The depositor's hits bear a star; ? = inconclusive; [ ] = dose if it differs, or a comment. % is scaled to controls: 0 for no effect and ±100 for the full control effect; potency is read from the fitted curve at half-maximal effect. The list is partial, so the mix of outcomes need not match the whole.

SMILES,StopGo reporter,RE007 growth inh
O=C(Cc1cccc(NC(=O)C2CCN(C(=O)C3CCCCC3)CC2)c1)Nc1cccc(C(=O)N2CCCCC2)c1,-4.9%,-0.3%
CSc1ncnc2c1ncn2CCCNCc1ccccn1,-9.1%,0.5%
Cc1cc(C)c2c(=O)n3c(nc2c1)C(Cc1ccccc1)NC(=O)c1cccnc1-3 (stereo not given),-9.8%,7.4%
C[C@H](CO)N1C[C@H](C)[C@@H](CN(C)C(=O)Oc2ccc3ccccc3c2)OCc2cnnn2CCCC1=O,5.5%,-14.6%
CCOC(=O)N(C)c1c(CC)nc2c(OCc3ccccc3C(=O)OC)cccn12,-2.1%,-5.7%
CCCC(=O)N1CCC1(C)C(=O)NS(=O)(=O)c1ccc(C(C)(C)C)cc1 (stereo not given),-23.8%,-5.0%
CCCS(=O)(=O)NC(=O)C1(C)CCCN(C(=O)c2ccc(C(F)(F)F)cc2)C1 (stereo not given),-5.1%,7.7%
Cn1c2ccccc2c(=O)c2c(=O)n(-c3ccc(F)cc3)c(C3CCCCC3)nc21,12.4%,-0.1%
CC(C)C[C@@H](CNCC(=O)[C@H](C)NC(=O)c1[nH]cnc1C(=O)N[C@@H](C)CN)NC(=O)c1nc[nH]c1C(=O)N[C@@H](C)C(=O)O,-20.0%,6.8%
CC1(C(=O)NCc2ccncc2)Cc2c(-c3cccc(C(F)(F)F)c3)ccnc2O1 (stereo not given),-25.2%,-12.8%
Cc1cnc(C(=O)N(CCCn2ccnc2)C2C(=O)Nc3ccccc3N=C2c2ccccc2)cn1 (stereo not given),-14.4%,?
CCNC(=O)C1CCCN(C(=O)C(c2ccccc2)c2ccccc2)CC1 (stereo not given),-7.1%,-2.0%[18.4 µM]
CC1(C(=O)NS(=O)(=O)c2cccc(OC(F)F)c2)CCN1C(=O)c1ccco1 (stereo not given),-16.3%,13.5%
CCn1c(SCC(=O)N2CCCCC2)nc2c([nH]c3ccccc32)c1=O,-5.3%,-10.4%
CCOC(=O)C1(C)CCCCN1C(=O)c1ccccc1OC (stereo not given),-15.6%,0.2%
Nc1ncnc2c1ncn2[C@@H]1O[C@H](C(=O)NCc2ccc3c(c2)OCO3)[C@@H](O)[C@H]1O,-25.3%,-5.8%
CC(=O)N1CCc2cc(S(=O)(=O)C(C)CC(=O)NCc3ccco3)ccc21 (stereo not given),-3.7%,-8.2%
COc1ccc(C(=O)NCC(C)(C)N2CCOCC2)cc1S(=O)(=O)NCc1ccc(Cl)cc1,-4.1%,15.3%
CNC(=O)C[C@H]1C(=O)N(c2ccc(Br)cc2)C[C@@H]1C,-12.1%,-19.9%
C[C@@H]1CN([C@H](C)CO)C(=O)CCCn2cc(nn2)CO[C@H]1CN(C)S(=O)(=O)c1ccc2c(c1)OCCCO2,6.0%,13.6%

One compound at a time, as listed above:
Entry for CCOC(=O)N(C)c1c(CC)nc2c(OCc3ccccc3C(=O)OC)cccn12 → StopGo reporter: -2.1%; RE007 growth inh: -5.7%
Entry for C[C@@H]1CN([C@H](C)CO)C(=O)CCCn2cc(nn2)CO[C@H]1CN(C)S(=O)(=O)c1ccc2c(c1)OCCCO2 → StopGo reporter: 6.0%; RE007 growth inh: 13.6%

The listing continues.
SMILES,StopGo reporter,RE007 growth inh
Cc1ccc(S(=O)(=O)N2C[C@H]3[C@H]4C(=O)N(c5ccccc5)C(=O)[C@H]4CC(=O)[C@H]3[C@@H]2c2cccc3ccccc23)cc1,-25.4%,-3.0%
CC(C)N1C(=O)c2ccccc2NC(=O)C1C(=O)NCc1cccs1 (stereo not given),-14.5%,3.6%
C[C@H](CO)N1C[C@H](C)[C@@H](CN(C)S(=O)(=O)c2ccccc2F)Oc2ncc(Br)cc2C1=O,-20.5%,30.8%
O=C(NCC(F)(F)F)c1ccc2sc([C@@H]3O[C@H](CO)[C@H](O)[C@H](O)[C@H]3O)nc2c1,-13.4%,11.5%
Nc1ccn([C@@H]2O[C@H](CNCC3=CCOc4ccc(O)cc43)[C@@H](O)[C@H]2O)c(=O)n1,-22.8%,11.2%
CC(C)CC(=O)N1CC=CC[C@@H](c2ccc(Cl)cc2)N(Cc2ccc(Cl)cc2)C(=O)[C@@H]1Cc1ccccc1,?,-2.4%
CCCCn1nnnc1C(c1ccccc1)N1CCN(c2ncccc2C(F)(F)F)CC1 (stereo not given),-8.0%,3.5%
COc1cc(C(=S)N2CCOCC2)cc(OC)c1OC(=O)c1ccccc1Cl,?,-4.6%
C[C@@H]1CN([C@H](C)CO)C(=O)CCCn2cc(nn2)CO[C@H]1CN(C)C(=O)Oc1cccc2ccccc12,-22.9%,12.6%
CC(=O)c1cccc(NC(=O)C2Cc3c(-c4ccccc4)ccnc3O2)c1 (stereo not given),?,-1.1%
O=C(O)c1cccc(-c2csc(C(O)c3ccc(F)c(F)c3)n2)c1 (stereo not given),42.9%[activator],22.6%
c1cc(-c2cc3cc(N4CCOCC4)ccc3o2)cs1,-34.0%,-12.9%
N#CCCN(Cc1cccnc1)CN1C(=O)c2ccccc2C1=O,0.0%,-11.5%
COc1cc(-c2ccc(N3C(c4ccsc4)=Cc4ccc(F)cc4C3c3c[nH]c4ccc(C#N)cc34)cc2)cc(OC)c1OC (stereo not given),-10.8%,7.2%
COC(=O)C1=C(C)NC(C)=C(C(=O)O[C@@H]2CCCN(Cc3ccccc3)C2)[C@@H]1c1cccc([N+](=O)[O-])c1,?,-16.6%[18.4 µM]
CCOc1cc(NCc2ccccc2)c2ncn(C(C)C)c2c1,0.0%,-26.1%
Cn1nc(C(C)(C)C)cc1N1C(=O)CCC1(C)C(=O)Nc1ccc2ccccc2c1 (stereo not given),-7.5%,-4.6%
O=C(NCc1cccs1)c1csc(COCCO)n1,-17.9%,4.9%
COCCCn1cc(CN2CC(N3CCSCC3)CS2(=O)=O)nn1 (stereo not given),-8.9%,11.6%
COc1ccc(S(=O)(=O)N2Cc3cnnn3-c3ccccc3C2C#N)cc1 (stereo not given),5.1%,-1.4%
O=C(NC(c1ccc(Cl)cc1)c1cccnc1)C1CCN(CCOc2ccc(Cl)cc2Cl)CC1 (stereo not given),-13.8%,10.2%
CCc1nc2ccc(C(=O)NCCN3CCOCC3)cn2c1N(C)Cc1ccc(OC)cc1,-23.8%,-24.9%
Cc1ccc(S(=O)(=O)NC(=O)C2(C)CCN2C(=O)Cc2ccc(-c3ccccc3)cc2)cc1 (stereo not given),22.6%,32.6%
CCc1nc2ccc(C(=O)N(C)CCCN(C)C)cn2c1N(C)Cc1cc2ccccc2s1,-10.0%,-2.5%
CNc1cncc(-c2cccc(NS(C)(=O)=O)c2)n1,2.5%,1.2%
COc1cc2c(c(OC)c1OC)-c1ccc(NCc3ccccc3)c(=O)cc1C(NC(C)=O)CC2 (stereo not given),-25.3%,-19.5%
COC(=O)c1c(-c2ccccc2)oc2c1C(OCCO)CCC2 (stereo not given),0.0%,-1.2%
CSc1ccc(S(=O)(=O)NCC(=O)OCC(=O)N(C)CC(=O)Nc2ccc(F)cc2)cc1[N+](=O)[O-],-7.3%,15.6%
NNc1cc2c(nn1)CCN(C(=O)c1ccccc1)C2,4.1%,-11.7%
CCOC(=O)C1CCCN(C(=O)c2cc(OC)ccc2Br)CC1 (stereo not given),-3.5%,-4.1%[18.4 µM]
COc1ccc(-c2ccccc2C2=CC(=O)CC(C)(C)C2=O)cc1,?,-1.6%
Nc1nc2ccc(Cl)cc2cc1C(=O)NC1CC1,-15.9%,1.7%
CC1CC(C)CN(C(CCc2ccccc2)C(=O)NC2CCCCC2)C1 (stereo not given),-14.3%,-4.2%
COCCNC(=O)C1(C)CCCN(CC(=O)c2ccc(OC)cc2)C1 (stereo not given),-4.5%,15.6%
CCCS(=O)(=O)NC(=O)C1(C)CCN(C(=O)Cc2ccc3ccccc3c2)C1 (stereo not given),-7.0%,1.3%
NC(CS(=O)O)C(=O)O (stereo not given),-1.9%,6.9%
COCCCC1CCN(C(=O)C2CCC(=O)N(CCCc3ccccc3)C2)CC1 (stereo not given),21.1%,-2.9%
CCC(=O)N(c1nnc(SCC(=O)Nc2sccc2C(N)=O)s1)C1CC1,-16.9%,-0.5%
COc1ccccc1-c1cnc2c(c1)C(=O)N([C@@H](C)CO)C[C@@H](C)[C@H](CN(C)C(=O)c1cccnc1)O2,-3.6%,16.6%
Cc1ccc(-c2nc3c4ccccc4ccn3c2Cc2ccsc2)cc1,14.4%,-25.2%
CCN(CC)CCN1CCN(c2cncc(-c3cccc(N)c3)n2)CC1,-19.8%,-16.4%
CN(Cc1ccccc1)C(c1cc2ccccc2o1)c1nnnn1C(C)(C)C (stereo not given),?,-2.1%
CC[C@H]1CN(C)CCc2c([nH]c3ccccc23)C(=O)C[C@@H]1/C(=C\OC)C(=O)OC,-23.6%,-6.3%
COc1cc(OC)cc(-c2noc(-c3csc([C@H]4C[C@H](O)[C@@H](CO)O4)n3)n2)c1,26.1%,-6.8%
CCc1ccc2c(c1)NC(=O)C2(C)Cc1cccc(F)c1 (stereo not given),-2.2%,8.8%
C[C@@H]1CCCCO[C@H](CN(C)C(=O)c2ccncc2)[C@H](C)CN([C@@H](C)CO)C(=O)c2cc(NC(=O)c3ccccc3)ccc2O1,-16.4%,26.7%
Cc1cc(C)c2cc(C#N)c(NCCCN)nc2c1,0.0%,-22.7%
COc1ccc(CNC(=O)Nc2ccc3c(c2)c(=O)n(C)n3Cc2cc(C)cc(C)c2)cc1,14.0%,0.3%
C#CCSc1nnc(C)c(C)n1,-13.5%,0.3%
CC(=O)Nc1cc(-c2ccc(C(=O)N3CCOCC3)cc2)cn2c(-c3ccc(F)c(Cl)c3)cnc12,-12.4%,-5.6%
Nc1cc(N)cc(C(=O)c2ccccc2)c1,0.0%,-4.0%
O=C1OC(c2cccc3c(F)cccc23)c2ccccc21 (stereo not given),-4.9%,2.8%
CCOC(=O)[C@]12Cc3cc(OC)ccc3[C@H]1N(C1CCCCC1)C(=O)c1cc(OC)ccc12,12.6µM*,?
CCCCN1C=C(C(=O)OCC)C(=O)CC1,-10.7%,1.3%
Cc1nn2c(=O)[nH]cnc2c1Cl,-2.7%,-0.9%
Cc1ccc(NC(=O)C2CCN(S(=O)(=O)c3ccc(C(C)(C)C)cc3)CC2)cc1S(=O)(=O)N1CCOCC1,?,-18.1%
O=C(Nc1ccc(Br)cc1F)c1nc[nH]c1C(=O)N1CCc2ccccc2C1,-9.6%,-13.5%
O=C(Nc1ccn(CCCNCc2ccc3c(c2)OCO3)c(=O)n1)OCc1ccccc1,16.1%,6.1%
COC(=O)C[C@@H]1C[C@H]2c3cc(NC(=O)C4CCC4)ccc3O[C@H]2[C@@H](CO)O1,-19.1%,8.9%
CN[C@H]1C[C@H]2c3[nH]c4ccc(-c5cccc(C)c5)cc4c3CCN2C[C@H]1[C@H](C)O,0.0%,18.5%

In the list so far, five have two or more sulfur atoms:
SMILES,StopGo reporter,RE007 growth inh
O=C(NCc1cccs1)c1csc(COCCO)n1,-17.9%,4.9%
COCCCn1cc(CN2CC(N3CCSCC3)CS2(=O)=O)nn1 (stereo not given),-8.9%,11.6%
CSc1ccc(S(=O)(=O)NCC(=O)OCC(=O)N(C)CC(=O)Nc2ccc(F)cc2)cc1[N+](=O)[O-],-7.3%,15.6%
CCC(=O)N(c1nnc(SCC(=O)Nc2sccc2C(N)=O)s1)C1CC1,-16.9%,-0.5%
Cc1ccc(NC(=O)C2CCN(S(=O)(=O)c3ccc(C(C)(C)C)cc3)CC2)cc1S(=O)(=O)N1CCOCC1,?,-18.1%

More entries.
SMILES,StopGo reporter,RE007 growth inh
C#Cc1ccc([C@H]2C=C(C(=O)OCC=C)O[C@@H](OCc3ccc(CO)cc3)C2)cc1,-2.2%,5.2%
CC(C)C[C@H]1CNC(=O)C(=O)N1CC1CCN(CCc2ccc(-c3ccccc3)cc2)CC1,-6.0%,-2.8%
COC(=O)[C@]12CCCCC=C1N(Cc1ccc3c(c1)OCO3)C(=O)[C@H](CC(=O)NCc1cccc(C(F)(F)F)c1)C2,-9.6%,-3.2%
O=C(NCc1ccccc1Cl)[C@H]1CCCN1C(=O)[C@H]1CCCN1,0.0%,0.7%
c1ccc(CNc2nc(NCc3cccs3)nc3ccsc23)cc1,-20.9%,-18.5%
COC(=O)[C@@]1(Sc2ccccc2)CC(=O)N[C@@H]1c1ccccc1,-5.6%,-14.4%
O=C(NCc1ccccc1Cl)c1csc([C@@H]2C[C@H](O)[C@@H](CO)O2)n1,1.1%,-3.3%
CC(=O)OC[C@@H]1CN(Cc2ccccc2)C[C@H](n2cnc3c(Nc4ccccc4)ncnc32)O1,-16.3%,5.0%
C[C@@H]1CNC(=O)c2c(C(=O)Nc3cccc(Cl)c3)ncn21,?,1.4%
COCCN(C(=O)CSc1nnc(-c2ccccc2F)o1)c1c(N)n(Cc2ccccc2)c(=O)[nH]c1=O,-11.6%,9.0%
CCCNC(=O)C1(C)CCN(C(=O)c2ccc3snnc3c2)C1 (stereo not given),-5.3%,12.6%
Cc1cccc(C)c1NC(=O)C(c1cc2ccccc2o1)N1CCN(C)CC1 (stereo not given),-3.9%,-3.0%
